Assay outcomes as filed in PubChem BioAssay.
SARS PLP yeast: SARS-CoV PLP inhibition in yeast; S. cerevisiae expressing SARS-CoV PLpro, growth rescue; control for the full effect not named in the record; Potency, µM (titrated, usually from 32.9 µM), without a hit: at the top dose activity, positive = growth rescue; 330,000 tested, 0.19% active; active means well fitted rising curve with a large enough effect; inconclusive means small, poorly fitted or top-dose-only effect; inactive means no such curve, though single readings can be large or run the other way; also: 0% is about no effect; nearly all actives have a fitted effect of over 55% in size; growth read by luminescence after 48 h
2A StopGo: FMDV 2A StopGo reporter, luciferase signal. 410,000 tested, 1.2% active. human cells with a luciferase reporter of 2A StopGo recoding; control for the full effect not named in the record. AID 1159524. Potency, µM (titrated, usually from 57.9 µM), for inactives: at the highest dose signal change, negative = less light; active = well fitted falling curve with a large enough effect; inconclusive = small, poorly fitted or top-dose-only effect; inactive = no such curve, though single readings can be large or run the other way; tested in HEK293T cells; also: % is scaled to controls: 0 for no effect and ±100 for the full control effect; nearly all actives have a fitted effect of over 45% in size; luciferase light after 4 h
Cruzain noTriton: blocks cruzain activity in detergent-free assay. purified cruzain, Z-FR-AMC fluorescence, no detergent. Potency, µM, inactives show max response, negative = inhibition, actives largely listed as inhibitors. 200,000 tested, 2.3% active. AID 1476;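 also: plate controls were enzyme without inhibitor for no effect and buffer without enzyme for full effect; nearly all actives have a fitted effect of over 40% in size; top concentration of the series not given in the record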
Target sequence (P25779 123-467 limits assumed): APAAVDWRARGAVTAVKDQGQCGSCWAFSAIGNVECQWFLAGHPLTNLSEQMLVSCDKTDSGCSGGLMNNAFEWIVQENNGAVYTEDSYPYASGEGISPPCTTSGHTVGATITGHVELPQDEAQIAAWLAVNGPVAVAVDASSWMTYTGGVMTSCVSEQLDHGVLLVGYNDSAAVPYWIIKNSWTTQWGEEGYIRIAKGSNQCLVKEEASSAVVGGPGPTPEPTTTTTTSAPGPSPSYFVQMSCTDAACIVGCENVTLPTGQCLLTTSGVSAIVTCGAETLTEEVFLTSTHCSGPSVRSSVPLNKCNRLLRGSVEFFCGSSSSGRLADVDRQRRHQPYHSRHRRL
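Detergent-free condition (0.00005% Triton X-100) in acetate buffer pH 5.5 with DTT. 1.5 nM enzyme and compound were pre-mixed 15 min, then 2 uM Z-FR-AMC substrate added; reaction progress from fluorescence change between first and third reads (60 s).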
LASV entry inh: Lassa virus entry inhibition | Potency, µM (top dose mostly 37.9 µM), for the others: at the highest dose activity change, negative = inhibition, actives largely listed as inhibitors | AID 540256 | 300,000 tested, 1.2% active | Lassa virus pseudotype entry inhibition, cell reporter; control for the full effect not named in the record; active means well fitted inhibition curve with a large enough effect; inconclusive means small, poorly fitted or top-dose-only effect, or effect the other way; inactive means flat fitted curve, though single readings scatter; tested in HEK293 cells; also: % is scaled to controls: 0 for no effect and ±100 for the full control effect; nearly all actives have a fitted effect of over 50% in size; luciferase read-out
NS1 function inh: influenza NS1 inhibition | S. cerevisiae slowed by influenza A NS1, growth recovery by OD600 | Potency, µM (top dose mostly 46.1 µM), without a hit: top-dose activity, positive = more growth | 270,000 tested, 0.4% active | AID 2326; active means well fitted rising curve with a large enough effect; inconclusive means small, poorly fitted or top-dose-only effect; inactive means no such curve, though single readings can be large or run the other way; also: nearly all actives have a fitted effect of over 50% in size
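OD600 was taken as the measure of yeast growth restored by compound in an NS1-expressing S. cerevisiae strain. Cells had been washed out of glucose medium and diluted 1:100 into galactose -URA medium, pH 6.0.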
Cruzain Triton: inhibitors of Trypanosoma cruzi cruzain with detergent | Potency, µM, inactives show max response, negative = inhibition, actives largely listed as inhibitors | P25779 | 200,000 tested, 0.43% active | purified cruzain, Z-FR-AMC fluorescence, 0.01% Triton;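 also: plate controls were neutral wells for no effect and buffer without enzyme for full effect; nearly all actives have a fitted effect of over 40% in size; top concentration of the series not given in the record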
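Enzyme 1.5 nM, Z-FR-AMC 2 uM, NaOAc 100 mM pH 5.5, DTT 5 mM, Triton X-100 0.01%; 15 min RT compound preincubation; kinetic ex360/em450, 60 s delta.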
RE007 growth inh: less growth of the S. pombe RE007 Vpr strain | 360,000 tested, 0.21% active | S. pombe RE007 Vpr strain, BacTiter-Glo ATP luminescence, 24 h; control for the full effect not named in the record | Potency, µM (series often up to 92.2 µM), without a hit: top-dose activity change, negative = less growth; active = well fitted falling curve with a large enough effect; inconclusive = small, poorly fitted or top-dose-only effect; inactive = no such curve, though single readings can be large or run the other way;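 also: % is scaled to controls: 0 for no effect and ±100 for the full control effect; nearly all actives have a fitted effect of over 50% in size; the assay follows cell death caused by Vpr and the record does not say whether a fall means rescue or toxicity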
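Fission yeast RE007 carrying one integrated HIV-1 vpr copy, seeded at OD 0.01 in PMG+AL medium with 23 nL pinned compound. Grown 24 h at 30 degrees; viability read by BacTiter-Glo luminescence after 5 min.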
Marburg entry inh: blocks Marburg virus binding to or entry into cells. Marburg virus pseudotyped entry inhibition, cell reporter; control for the full effect not named in the record; about a third of the inactives were read at about 46 µM. 300,000 tested, 1.8% active. AID 540276. Potency, µM (doses to about 37.8 µM), for the others: top-dose activity change, negative = inhibition, actives largely listed as inhibitors; active = well fitted inhibition curve with a large enough effect; inconclusive = small, poorly fitted or top-dose-only effect, or effect the other way; inactive = flat fitted curve, though single readings scatter; tested in HEK293 cells; about a fifth of its hits are not listed in these tables; also: % is scaled to controls: 0 for no effect and ±100 for the full control effect; luciferase read-out
* marks the source's active call; other numbers are inactive results; ? = inconclusive; . = not tested or not shown; & = joins results of further samples; [ ] = dose if it differs, or a comment. Unless noted, calls follow the shape of the dose curve; as a rule, active = well fitted curve in the direction sought with a large enough effect; inconclusive = small, poorly fitted or top-dose-only effect, or another doubt; inactive = no such curve, though single readings can be large; an effect the other way counts as inactive or inconclusive. Potency is read from the fitted curve at half-maximal effect.

SMILES	SARS PLP yeast	2A StopGo	Cruzain noTriton	LASV entry inh	NS1 function inh	Cruzain Triton	RE007 growth inh	Marburg entry inh
Cn1c(NCCO)nc2c1c(=O)n(Cc1ccccc1Cl)c(=O)n2C	.	-10%	-10%	10%[46.1 µM]	.	-2.0%	.	28%[46.1 µM]
CCOC(=O)C1=C(C)NC(SCC(N)=O)=C(C#N)C1c1cccs1 (configuration not stated)	-3%	0%	-2%	1%	12%	-1.6%	14%	-22%
CCOC(=O)Cc1nc(-c2cccc(C(F)(F)F)c2)no1	-1%	-12%	.	-24%[46.1 µM]	.	.	-1%	?
Cc1cc(C)nc(N2C(=O)CC(C(=O)O)NC2=NCCc2c[nH]c3ccccc23)n1 (configuration not stated)	5%	-17%	0%	3%	7%	1.0%	0%	-16%
Cc1ccc(N(C)C(=O)Cn2nc(Cc3ccncc3)c3ccccc3c2=O)cc1C	.	-10%	1%	24%[46.1 µM]	.	-1.8%	.	-13%[46.1 µM]
O=C(Nc1ccc(S(=O)(=O)NC2=NCCCCC2)cc1)c1cccc(S(=O)(=O)N2CCOCC2)c1	6%	-6%	.	-2%	.	.	4%	?
O=C(Nc1ccc2c(c1)OCO2)NC1CCN(Cc2ccccc2)CC1	-1%	25%	-7%	15%	-1%	1.7%	7%	-4%
CSCCC(NC(=O)c1ccccc1Cl)C(=O)Nc1cccc(S(=O)(=O)N2CCCC2)c1 (configuration not stated)	2%	13%	.	8%	.	.	1%	-1%
CN(C)C=NC(=O)c1cc(C(=O)c2ccccc2)c[nH]1	0%	19%	.	22%	3%	.	0%	-9%[46.1 µM]
CCCSc1nnc(NC(=O)Nc2ccc(C)cc2)s1	0%	2%	.	8%[46.1 µM]	2%	.	-3%	?
COc1ccc(CCC(=O)Nc2ccc(Cl)c(S(=O)(=O)N3CCCC3)c2)cc1	2%	-28%	.	.	3%	.	5%	.
Brc1ccc(-c2nnc(-c3ccco3)o2)cc1	-1%	2%	1%	-4%	-65%	4.9%	-20%	-3%
O=C(O)c1ncn(Cc2ccc(Br)cc2)c1C(=O)O	2%	35µM*	.	-2%	.	.	5%	?
Cc1cc(C(=O)N2CCN(c3ccccc3)CC2)c2c(C)nn(-c3cccc(F)c3)c2n1	.	-20%	-12%	23%[46.1 µM]	.	-1.8%	.	.
CC(C)(C)C1CCc2onc(C(=O)NCc3ccc(F)cc3)c2C1 (configuration not stated)	-10%	-13%	6%	-29%	-72%	-16%	18%	-30%
Cc1ccc(S(=O)(=O)c2c(C)cc(C)nc2Oc2cccc(C)c2C)cc1	-19%	-7%	4%	?	-13%	3.3%	-4%	?
Cc1ccccc1N=C(N)Nc1ccccc1C	-1%	-18%&-2%&-9%	1%	.	.	-2.3%	1%	.
Cc1ccc(C)c(NC(=O)CC2Sc3ccccc3NC2=O)c1 (configuration not stated)	.	-6%	.	-21%	.	.	11%	17%
CCCC(=O)Nc1c(C(=O)N2CCN(c3ccccc3)CC2)oc2ccccc12	.	29%	?	-17%[46.1 µM]	.	-6.9%	.	-20%[46.1 µM]
Cc1ccccc1NC(=O)Cc1nc(COC(=O)CSc2ccccc2)cs1	?	-10%	.	-18%	-1%	.	-5%	17%
O=C(Cc1cccs1)NCCN1CCOCC1	13%	-5%	14%	-2%	18%	-1.7%	-15%	17%
Cc1ccc(C)c(S(=O)(=O)N2CCCOC2CNC(=O)C(=O)NCc2ccccc2)c1 (configuration not stated)	-4%	3%	.	?	1%	.	36%	?
COc1ccc(CN(C)CC(=O)Nc2cccc3ccccc23)cc1F	5%	3%	.	2%[46.1 µM]	-6%	.	-21%	?
CCOc1ccccc1NC(=O)N1CCCC(c2nc(-c3ccc(C)o3)no2)C1 (configuration not stated)	0%	-7%	.	-13%	-2%	.	-10%	-14%
Cc1ccc(COc2ccc(/C=N/O)cc2)cc1	2%	13%	6%	?	-18%	-4.8%	-15%	?
CSc1nn(Cc2ccc(C)cc2)c(N)c1S(=O)(=O)c1ccccc1	.	-5%	-6%	-16%[46.1 µM]	.	-11%	.	?
CN(C)CCn1c2c(c(SCC(=O)Nc3nccs3)nc1=O)CCCC2	-2%	-23%	.	-1%	.	.	1%	-20%
Cc1ccc(NC(=O)CCC(=O)OCC(=O)c2ccc(Oc3ccc([N+](=O)[O-])cc3)cc2)cc1	-22%	-6%	11%	2%	13%	-4.5%	4%	?
CC(=O)Nc1sc(N/N=C\c2ccco2)nc1-c1cccs1	-22%	3%	6%	2%	6%	-4.5%	26%	3%
O=[N+]([O-])c1ccc(/C=N/NS(=O)(=O)c2ccc(Cl)cc2)o1	-65%	0%	-4%	-7%	-48%	-13%	?	1%
C=CCNC(=S)NNc1nc(N2CCCC2)nc(N2CCCC2)n1	-3%	-6%	.	.	18%	.	12%	.
O=C(NCCCCO)c1ccc2c3c(cccc13)CC2	-1%	8%	.	23%	0%	.	-1%	29%[46.1 µM]
O=C(CCn1ccnc1)Nc1ccc2ccccc2c1	-3%	10%	.	-1%	.	.	-4%	-18%
CC(=O)Nc1ccc(S(=O)(=O)N2CCC(C(=O)NCc3cccnc3)CC2)cc1	-2%	-20%	.	.	10%	.	-8%	.
O=C(Cc1ccc([N+](=O)[O-])cc1)Nc1cccc(C(F)(F)F)c1	8%	-21%	7%	-16%	-20%	-8.6%	-4%	-10%
CCOC(=O)C1CCN(S(=O)(=O)c2ccc3c(c2)CC(=O)N3)CC1	3%	-25%	.	.	8%	.	2%	.
Cc1ccc(C(=O)OCC(=O)c2ccc(CC(=O)N3CCOCC3)s2)c(C)c1	-1%	19%	.	-10%	.	.	-15%	26%
COc1ccc(NC(=O)c2cc3ccccc3o2)c(OC)c1	.	19%	1%	2%[46.1 µM]	.	-6.0%	.	.
CC1CCN(S(=O)(=O)c2cn(CC(=O)Nc3ccc(C#N)cc3)cn2)CC1	18%	-11%	.	.	7%	.	-2%	.
CC(=O)Nc1ccc2c(c1)-c1ccc(F)cc1C2	.	-12%	.	9%	.	.	?	?
CCC(C)(C)n1nnnc1C(C(C)C)N1CCN(C)CC1 (configuration not stated)	3%	.	2%	-6%	0%	-1.1%	-15%	-11%
Cc1ccc(S(=O)(=O)c2ccc(Cl)cc2)cc1S(=O)(=O)N1CCN(C)CC1	-1%	-24%	6%	0%	-4%	-1.2%	2%	?
CCC(CC)C(=O)NCCc1ccc(F)cc1	5%	-12%	5%	14%	2%	3.5%	-17%	-2%
FC(F)(F)c1ccnc(Oc2ccc(C3=NCCS3)cc2)c1	-1%	23%	.	.	-7%	.	3%	.
COc1ccccc1NC(=O)CSC1CC(=O)N(c2ccc3c(c2)OCO3)C1=O (configuration not stated)	-15%	-21%	-13%	-23%	-12%	2.4%	-5%	-1%
COC(=O)CSc1[nH]c2ccc(F)cc2c1[N+](=O)[O-]	1%	-9%	.	.	-36%	.	-10%	.
O=C(NCc1cccnc1)c1ccccc1NC(=O)c1c(F)cccc1F	5%	-4%	.	29%[46.1 µM]	9%	.	-4%	23%[46.1 µM]
CN(C(=O)c1ccccc1OCc1ccc(Cl)cc1)c1ccccc1	0%	-12%	.	?	6%	.	5%	?
COc1ccc(C(=O)NC(C)CCc2ccccc2)cc1[N+](=O)[O-] (configuration not stated)	0%	-24%	.	-6%	2%	.	5%	-13%
CC(C)C(=O)N1CCN(c2ccccc2NC(=O)c2cccc(Cl)c2)CC1	-10%	-19%	0%	?	-10%	-5.6%	-9%	?
O=S(=O)(c1ccc(F)cc1)n1ccc(-c2cccc(OCc3ccc(Cl)cc3Cl)c2)n1	2%	4%	?	-22%	?	7.9%	-3%	-21%
COC(=O)c1c(NC(=O)CCCOc2ccc(C(C)(C)C)cc2)sc2c1C(C(=O)OC)CC2 (configuration not stated)	.	35µM*	?	?	.	-15%	.	.
COc1ccccc1OCC(=O)NCCCN1CCOCC1	0%	1%	.	-14%	5%	.	-14%	-1%[46.1 µM]
O=C(CN1C(=O)CSc2ccc(C(F)(F)F)cc21)Nc1ccccc1	0%	-17%	.	-2%	1%	.	1%	?
CC1Cn2c(nc3sc4c(c3c2=O)CCC4)N1CCO (configuration not stated)	1%	11%	-7%	9%	-2%	3.6%	-1%	6%
COc1ccc(Cc2nnc(NC(=O)Nc3ccccc3OC)s2)cc1	-1%	-14%	.	5%[46.1 µM]	10%	.	12%	.
CNc1c(NS(=O)(=O)c2ccc(OC)cc2)c(=O)oc2ccccc12	0%	1%	.	-2%[46.1 µM]	8%	.	9%	-16%[46.1 µM]
OC(COCc1ccccc1)CN1CCc2ccccc2C1 (configuration not stated)	1%	-3%	-12%	16%	-4%	-2.8%	-12%	15%
Cc1cccc(N(C(=O)CCC(=O)Nc2nccs2)C(C(=O)NC(C)(C)C)c2ccc(O)cc2)c1 (configuration not stated)	1%	-2%	.	?	?	.	-2%	2.8µM*
CCn1c(SCc2ccc(C(=O)OC)o2)nc2sc3c(c2c1=O)CCCC3	2%	1%	-5%	-10%	10%	-4.0%	0%	?
(list continues)
SMILES	SARS PLP yeast	2A StopGo	Cruzain noTriton	LASV entry inh	NS1 function inh	Cruzain Triton	RE007 growth inh	Marburg entry inh
COc1ccc(OC)c(N(CC(=O)NC2CC3CCC2C3)S(=O)(=O)c2ccccc2)c1 (configuration not stated)	1%	11%	.	-1%	-30%	.	-25%	?
O=S(=O)(c1cccs1)N1CCc2ccccc2C1	-2%	-1%	-8%	2%	15%	-8.7%	-6%	-1%
Cc1cc(C)c(S(=O)(=O)N2CCN(C(=O)c3c(C)nn(-c4ccccc4)c3Cl)CC2)c(C)c1	.	25µM*	.	?	.	.	33%	14µM*
COc1ccc(C(CC(=O)O)NC(=O)Cc2ccccc2)cc1 (configuration not stated)	-6%	-7%	10%	5%	-7%	3.6%	23%	7%[46.1 µM]
Cc1cccc(NC(=O)CN2C(=O)S/C(=C\C(=O)Nc3ccc(Cl)cc3)C2=O)c1	2%	-14%	13µM*	0%	2%	-1.1%	1%	?
